# Screening data: PubChem BioAssay, Johns Hopkins Ion Channel Center
# KCNQ2 inh: KCNQ2 channel blockers in CHO-K1 cells – cell-based, FluxOR thallium flux, B-score, primary screen (AID 2156) | 20 min; active compounds read low; only compounds with negative scores are shown here; some inactives read as strong as hits | B-score at 10 µM | actives 1.1% (n = 310,000);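 active = fluorescence ratio B-score at most minus 3 library SDs, with starting brightness B-score within 2 library SDs, cut at about -5.5 in these data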
# Target sequence (O88943 whole entry, looked up): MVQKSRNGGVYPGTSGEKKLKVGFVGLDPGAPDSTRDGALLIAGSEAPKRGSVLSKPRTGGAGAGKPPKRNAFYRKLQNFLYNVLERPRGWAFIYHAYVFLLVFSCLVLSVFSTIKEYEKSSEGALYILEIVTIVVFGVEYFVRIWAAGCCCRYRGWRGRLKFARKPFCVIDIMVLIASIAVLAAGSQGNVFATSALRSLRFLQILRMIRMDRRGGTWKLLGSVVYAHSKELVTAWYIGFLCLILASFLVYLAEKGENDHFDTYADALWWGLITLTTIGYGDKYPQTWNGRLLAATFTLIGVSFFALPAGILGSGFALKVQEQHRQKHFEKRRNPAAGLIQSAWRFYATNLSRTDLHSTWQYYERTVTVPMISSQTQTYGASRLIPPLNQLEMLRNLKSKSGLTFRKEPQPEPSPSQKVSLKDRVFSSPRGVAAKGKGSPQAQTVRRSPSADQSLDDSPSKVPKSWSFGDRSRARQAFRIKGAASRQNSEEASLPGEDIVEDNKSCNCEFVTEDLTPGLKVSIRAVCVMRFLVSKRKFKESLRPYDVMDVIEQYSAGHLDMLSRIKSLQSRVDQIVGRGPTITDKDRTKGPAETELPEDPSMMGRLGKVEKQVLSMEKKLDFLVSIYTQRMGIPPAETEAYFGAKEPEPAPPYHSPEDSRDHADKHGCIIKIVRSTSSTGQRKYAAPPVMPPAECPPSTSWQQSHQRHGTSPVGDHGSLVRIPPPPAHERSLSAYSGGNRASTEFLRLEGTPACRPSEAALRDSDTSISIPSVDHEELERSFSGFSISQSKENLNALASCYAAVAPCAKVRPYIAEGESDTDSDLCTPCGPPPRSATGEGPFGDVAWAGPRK
# KCNQ2 inh baseline: also measured in KCNQ2 inh; calls as there; B-score; measured here: initial fluorescence intensity artifact check;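 brightness before thallium and not channel activity; 0 = typical well and far values either way flag optical interference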
# Starred values were filed as active, the others as inactive; i = inactive. These rows are one share of the data; rates above refer to the full screens.
# Start of the data: the first three records, ahead of the listing:
KCNQ2 inh | KCNQ2 inh baseline | smiles
i | -2.9 | CCn1c(COc2ccc(=O)n(-c3ccccc3)n2)nnc1SCC(=O)OC
i | -0.96 | CS(=O)(=O)N(CC(=O)Nc1ccccc1Cl)c1ccc(Cl)cc1
i | -0.41 | COC(=O)c1cc(S(=O)(=O)N2CCN(c3ccc(OC)cc3)CC2)cn1C

# The listing, repeating the preview:
KCNQ2 inh | KCNQ2 inh baseline | smiles
i | -2.9 | CCn1c(COc2ccc(=O)n(-c3ccccc3)n2)nnc1SCC(=O)OC
i | -0.96 | CS(=O)(=O)N(CC(=O)Nc1ccccc1Cl)c1ccc(Cl)cc1
i | -0.41 | COC(=O)c1cc(S(=O)(=O)N2CCN(c3ccc(OC)cc3)CC2)cn1C
i | -2 | COc1ccc(CN2C(=O)c3cccnc3C2Nc2ccc(C)cc2)cc1 (configuration not stated)
i | 0.5 | CCN1C(=NCCOC)N[C@@H](c2cccc(F)c2)C(C(=O)OC)=C1C
i | -1.3 | CC(C)N1CCN(Cc2coc3ccccc3c2=O)CC1CCO (configuration not stated)
i | 0.76 | Cc1cccc(NC(=O)c2ccc([N+](=O)[O-])o2)c1C
i | -0.02 | Nc1cc(C(=O)OCC(=O)NC(c2ccccc2)c2ccccc2)ccc1Cl
i | 1.1 | CCN(CC)CCn1c(N)cc(=O)[nH]c1=O
i | -0.98 | Cc1cc(C(=O)N2CCN(c3ncccn3)CC2)nn1C
i | -1.5 | Cc1ccc(N2CC(C(=O)NC3CC3)CC2=O)cc1 (configuration not stated)
i | 0.09 | CCCNS(=O)(=O)c1ccc2c(c1)CCCN2C(C)=O
i | 4 | Cc1ccc(CSCC(=O)N/N=C/c2ccc(OCC(=O)Nc3ccc(C)cc3)cc2)cc1
i | 0.52 | CC(C)Sc1nc2c(c(=O)n(C)c(=O)n2C)n1Cc1ccc(Cl)cc1
i | -0.45 | CN(C)Cc1nc2ccccc2c(=O)n1Cc1nc(-c2cccc([N+](=O)[O-])c2)cs1
i | 0.58 | O=C(NCC(c1ccco1)N1CCN(c2ccc(F)cc2)CC1)OCc1ccccc1 (configuration not stated)
i | -1.5 | CC(=O)C1=C(O)CC(c2ccccc2)CC1=NCCc1ccccc1 (configuration not stated)
i | -1.8 | COc1ccc(NC(=O)NNC(=O)c2ccc(-c3ccccc3)cc2)cc1
i | 0.61 | O=C(O)CCC(=O)N1CN2CN(C(=O)CCC(=O)O)CC([N+](=O)[O-])(C2)C1
i | -0.58 | CC(C)c1ccc(S(=O)(=O)N2CCC3(CC2)OCCO3)cc1
i | -2.1 | CCCCOC(=O)c1ccc(NC(=O)c2cnccn2)cc1
i | 1.2 | Cn1c(CNC(=O)c2ccco2)nnc1SCC(=O)N1CCN(c2ccccc2F)CC1
i | -0.58 | Cc1ccc(-c2nc(N)c3c(-c4ccc(C)cc4)nn(C(C)(C)C)c3n2)cc1
i | -2.5 | CCOC(=O)c1c(C)[nH]c(N=Nc2ccccc2C)c1C
i | -0.62 | Cc1ccc(-c2csc3ncnc(Sc4nnc(CN5CCCCCC5=O)o4)c23)cc1
i | 0.32 | CCOc1ccc(C(=O)Oc2cc(C)[nH]c(=O)c2[N+](=O)[O-])cc1
i | 0.81 | CCOC(=O)c1ccc(NC(=O)N2CCN(c3cccc(OC)c3)CC2)cc1
i | 1 | Cc1ccc(C(C)C)c(OCC(O)CN2CC(C)OC(C)C2)c1 (configuration not stated)
i | -1.2 | COc1cc(/C=C/C(=O)N2CC(C)OC(C)C2)cc(OC)c1OC (configuration not stated)
i | -0.01 | Cc1cc(OCC(=O)Nc2c(C)n(C)n(-c3ccccc3)c2=O)ccc1[N+](=O)[O-]
i | 0.87 | O=C(COC(=O)c1ccccc1SCC(=O)NC1CCCCC1)NC1CCCCC1
i | -0.37 | CC1CCN(c2ccccc2N)CC1
i | 0.94 | CCN(CC)C(=O)c1sc(NC(=O)C(Sc2ccccc2)c2ccccc2)c(C(=O)OC(C)C)c1C (configuration not stated)
i | 2.4 | Cc1cc(=O)n2nc(N3CCC(C(=O)NCCc4ccccc4)CC3)sc2n1
i | 1.5 | COc1cc2c(cc1OC)CN(C(=O)c1ccccc1C(=O)O)CC2
i | 0.09 | OC(CN1C2=NCCCN2c2ccccc21)c1ccc(Br)cc1 (configuration not stated)
i | -1 | CSc1ncccc1C(=O)OCc1ccc([N+](=O)[O-])cc1
i | 0.02 | COc1cc(Nc2nnc(C)s2)c(Cl)cc1Cl
i | 2.3 | CC1(C)C(c2ccccc2)=NC(c2ccc(F)cc2)N1O (configuration not stated)
i | -2.7 | COc1ccc(Cc2nnc3sc(SCC(=O)Nc4ccccc4)nn3c2=O)cc1OC

# Shown with two lines to a compound: entries from further up
# Each structure is followed by: KCNQ2 inh | KCNQ2 inh baseline
Cn1c(CNC(=O)c2ccco2)nnc1SCC(=O)N1CCN(c2ccccc2F)CC1
→ i | 1.2
COc1ccc(Cc2nnc3sc(SCC(=O)Nc4ccccc4)nn3c2=O)cc1OC
→ i | -2.7

# (more compounds)
KCNQ2 inh | KCNQ2 inh baseline | smiles
i | 0.1 | O=C(Nc1cccc(Br)c1)c1ccn[nH]1
i | -0.3 | COc1cccc(C(c2nnnn2CS(=O)(=O)c2ccc(C)cc2)N2CCN(C)CC2)c1OC (configuration not stated)
i | 1.7 | Clc1cccc(-c2nnc(-c3ccccc3)o2)c1
i | 0.34 | O=C(NC1CCCCCCC1)c1cccnc1
i | 0.01 | COc1ccc(C(=O)NCc2nnc(SCC(=O)N3CCCC3)o2)cc1
i | -0.04 | C/C(=N\Nc1cc(C)nc(NCc2ccccc2)n1)c1ccc([N+](=O)[O-])cc1
i | 1.3 | CCOC(=O)C1(Cc2cccc(Cl)c2)CCCN(C2CCN(C(C)=O)CC2)C1 (configuration not stated)
i | 1.9 | CC1(C)CC(=O)C(C2NCCc3ccccc32)=C(O)C1 (configuration not stated)
i | 0.84 | CC(=O)Nc1ccc(S(=O)(=O)Nc2cccc3[nH]ncc23)cc1
i | 0.65 | Cc1oc2c(CN3CCC(C)CC3)c(O)ccc2c(=O)c1-c1ccccc1
i | 0.02 | FC(F)c1nc2ccccc2[nH]1
i | 1.1 | O=C(CCn1c(=O)[nH]c2ccccc2c1=O)NCCCN1CCN(c2cccc(Cl)c2)CC1
i | 0.88 | Cc1cc(C)cc(C(=O)OCC(=O)NC2CCCC2)c1
i | 0.24 | CCOC(=O)Cc1csc(NC(=O)CSc2nc(N)c3c(C)c(C)sc3n2)n1
i | -3.8 | CCOC(=O)c1c(CN2CCOCC2)n(-c2ccccc2)c2cc(Br)c(OC)cc12
i | -1.5 | COc1cc(OC)c(OC)cc1/C=C/C(=O)c1ccc(NS(=O)(=O)c2ccc(C)cc2)cc1
i | -0.88 | CCN(C(=O)CSc1nc2cc(C(=O)O)ccc2c(=O)n1Cc1ccccc1)c1ccccc1
i | 0.4 | CCC(Cc1ccccc1)NCc1c(C(=O)O)c(C)n(Cc2ccccc2)c1C (configuration not stated)
i | -0.47 | O=S(=O)(c1ccc2c(c1)OCCO2)N(Cc1ccc(F)cc1)Cc1nnc(-c2cccs2)o1
i | 35 | CN(C)c1ccc(/C=N/N(CCO)C2=NS(=O)(=O)c3ccccc32)cc1
i | 1.1 | Cc1cc(C(=O)C(=O)O)c(C)n1-c1ccc(Cl)cc1
i | -0.36 | COc1ccc(/C=C/C(=O)OCC(=O)N2CC(=O)Nc3ccccc32)cc1S(=O)(=O)N1CCOCC1
i | 0.02 | COc1ccc(-n2nnc3c(=O)n(CC(=O)Nc4cc(C)on4)cnc32)cc1OC
i | 0.8 | Cn1ncc(Br)c1NC(=O)c1ccco1
i | 0.34 | Cc1nc(-c2cccc(S(=O)(=O)N3CCCCCC3)c2)cs1
i | 0.8 | O=C(Nc1ccc(N2CCCC2)cc1)c1cc(Cl)ccc1Cl
i | -1.6 | Cc1ccc(C(C(=O)NCC2CCCO2)N(C(=O)c2snc(C(N)=O)c2N)c2ccc(C(C)C)cc2)o1 (configuration not stated)
i | 0.75 | O=C(c1ccc(Cl)cc1)C1CCCN(C(=O)/C=C/c2ccccn2)C1 (configuration not stated)
-7* | 1.2* | Cc1ccc(C2=Nc3c(ccc4ccccc34)C(c3ccncc3)=NN2)cc1
i | 1.2 | O=c1cc(N2CCc3ccccc3C2)[nH]c(=O)n1C1CCCCC1
i | 0.46 | O=C(NC1CCCCC1)C1CCN(S(=O)(=O)N2CCCCCC2)CC1
i | -1.3 | CCC(=O)NC(Nc1nc2ccc(C)cc2s1)(C(=O)OC)C(F)(F)F (configuration not stated)
i | -0.01 | NNC(=S)Nc1ccc(C(F)(F)F)cc1Cl
i | -0.5 | Brc1ccc(-c2noc(-c3ccccn3)n2)o1
i | -0.61 | Cc1cc(C)n(C(=O)CCC2COc3ccccc3O2)n1 (configuration not stated)
i | -0.98 | O=C(N/N=C/c1cccc(Oc2ccccc2)c1)c1ccc(O)cc1O
i | -1.6 | CC(=O)c1ccc(OC(C)c2nc3ccccc3s2)cc1 (configuration not stated)
i | 0.53 | c1ccc(Nc2ccc3c4c(cccc24)CC3)cc1
i | 2.3 | Cc1cc(Cc2cc(C)c(N)cc2C)c(C)cc1N
i | -0.02 | CC1CCC/C(=C\c2ccc(O)cc2)C1=O (configuration not stated)
i | 1.1 | CC(=O)OCC1OC(n2ccc3ccccc32)C(OC(C)=O)C(OC(C)=O)C1OC(C)=O (configuration not stated)
i | -0.12 | CCOc1cc(N2CCOCC2)c(OCC)cc1NC(=O)c1ccc(OC)cc1
i | -0.18 | COc1ccc(C2CC(c3ccccc3)=NN2C(=O)COC(=O)c2cccc(S(=O)(=O)N(C)C)c2)cc1 (configuration not stated)
i | -0.77 | C[C@H](NC(=O)[C@@H]1Cc2ccccc2CN1C(=O)OC(C)(C)C)C(=O)NC1CCCCC1
i | -2.5 | Cc1ccc(S(=O)(=O)N2CCCC2C(=O)Nc2nc3ccccc3s2)cc1 (configuration not stated)
i | 0.01 | CCN(CC)C(=O)c1sc(NC(=O)c2ccncc2)c(C(=O)OC)c1C
i | -1.3 | CCN(CC)CCCNC(=O)c1cn(CC)c2ccc(S(=O)(=O)N(C)C3CCCCC3)cc2c1=O
i | -2.1 | CCS(=O)(=O)c1nc(S(=O)(=O)c2ccc(C)cc2)c(N2CC(C)OC(C)C2)s1 (configuration not stated)
i | 0.56 | COc1cccc(NC(=O)CCP(C)(=O)O)c1
i | 0.63 | O=S(=O)(c1ccccc1)n1ccc(-c2cnc(-c3ccccc3)s2)n1
i | -0.43 | CC(=O)NCCc1nc2ccccc2n1CCOc1cccc(C)c1
i | 0.54 | CCOc1nc(NCCc2ccc(OC)c(OC)c2)nc(NC(C)(C)CO)n1
i | -0.02 | CC1CCN(CC(=O)Nc2ccc(Cl)cc2[N+](=O)[O-])CC1
i | -0.04 | CCc1nc2ccccc2n1Cc1ccc(OC)c(OC)c1
i | 0.27 | Cc1cc(NC(=O)CSc2nc(C(C)C)nc3sc4c(c23)CCCC4)no1
i | -1.4 | O=C(NCC(=O)c1ccccc1)OCc1ccc([N+](=O)[O-])cc1
i | -0.04 | O=C(CSCc1ccc(F)cc1)N1CCN(c2ccc(F)cc2)CC1
i | -1 | O=S(=O)(Nc1cccc(-c2ccc(N3CCCCCC3)nn2)c1)c1ccccc1Cl
i | 0.48 | CCCC(=O)Nc1cc(OC)c(C(=O)OC)cc1Cl
i | 1.4 | O=C(CCc1nc2ccccc2[nH]1)Nc1ccc(F)cc1

# By substructure, those above containing a tert-butyl group (2)
KCNQ2 inh | KCNQ2 inh baseline | smiles
i | -0.58 | Cc1ccc(-c2nc(N)c3c(-c4ccc(C)cc4)nn(C(C)(C)C)c3n2)cc1
i | -0.77 | C[C@H](NC(=O)[C@@H]1Cc2ccccc2CN1C(=O)OC(C)(C)C)C(=O)NC1CCCCC1

# Continuation.
KCNQ2 inh | KCNQ2 inh baseline | smiles
i | -0.18 | Cc1cc2n(n1)SC(Nc1ccc(F)cc1)N2 (configuration not stated)
i | 2.2 | CCOCCc1nnc(NC(=O)CCc2ccccc2)s1
i | 0.41 | O=C(CCNc1ccc(Cl)c(C(F)(F)F)c1)c1ccco1
i | 0.2 | Clc1ccccc1-c1nc2ccccc2[nH]1
i | 0.86 | c1ccc(-c2ccc(C(c3ccccc3)n3ccnc3)cc2)cc1 (configuration not stated)
i | -2.2 | O=C(Cc1cccs1)N1CCC(c2nc3c(nnn3Cc3ccccc3Cl)c(=O)[nH]2)CC1
i | -0.12 | O=C(O)Cc1ccc2oc(-c3ccccn3)nc2c1
i | 0.55 | O=C(CSc1ccc(/C=N/NC(=O)c2cccc(F)c2)o1)Nc1ccccc1
-6.8* | 1.2* | COc1ccccc1CNC(=O)COC(=O)C1CCN(c2ccc(C(F)(F)F)cn2)CC1
i | 3.1 | COc1ccc(CNC(=S)Nc2cccc(C)c2)cc1
i | -0.74 | O=C(O)c1cc(Br)ccn1
i | 1.3 | COCCNC(=O)C(c1ccc(F)cc1)N(C(=O)CCC(=O)Nc1nccs1)c1cccc(C)c1 (configuration not stated)
i | 0.07 | O=C(NNS(=O)(=O)c1ccccc1)c1csc(-c2cccnc2)n1
i | -0.64 | Cn1c(=O)c2[nH]c(CCCC(=O)O)nc2n(Cc2ccccc2)c1=S
i | -0.89 | Cc1ccc(-n2c(-c3cn(C)nc3C)n[nH]c2=S)cc1
i | 0.35 | COc1ccccc1CN1CCN(C(=O)c2ccco2)CC1
i | -1.3 | CCN1C(=O)C(Cc2nc3ccccc3c(=O)n2-c2ccccc2)c2ccccc21 (configuration not stated)
i | -0.85 | CCSc1nnc(CNC(=O)C23CC4CC(CC(C4)C2)C3)n1Cc1ccccc1
i | -0.1 | O=C(/C=C/c1cccs1)NC(=S)Nc1ccc(S(=O)(=O)Nc2ccccc2C(F)(F)F)cc1
i | 0.07 | Cc1ccccc1OCC(=O)NC(=S)Nc1ccc(Br)c(C)n1

# Single values from the results shown.
# `COc1ccccc1CN1CCN(C(=O)c2ccco2)CC1` in KCNQ2 inh baseline is entered as 0.35
# `CCCC(=O)Nc1cc(OC)c(C(=O)OC)cc1Cl` in KCNQ2 inh baseline is entered as 0.48
